Mtb bLac sens: beta-lactam sensitization of Mtb H37Rv, H37Rv; M. tuberculosis H37Rv growth with meropenem, percent inhibition; hits of this screen are not shown here; inhibition, % at 25 µM; 0.27% of 330,000 active; AID 434955, 2010;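 active = about 74% or more and at least 40 points above the plate without the antibiotic, then above 30% in a dose series; inconclusive = first-round hits that could not be retested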;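 note: growth measured after seven days incubation then overnight dye step; 0% = bacteria only wells and 100% = bacteria with antibiotic; twin plates without the antibiotic show which effects depend on it; some results filed as inactive read as strong as hits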
RecA splice inh: Mtb RecA intein splicing inhibitors, primary screen, biochemical, fluorescence, HTS. Protein RecA (Mycobacterium tuberculosis (strain ATCC 25618 / H37Rv)), P9WHJ3. cell-free RecA intein splicing. inhibition, %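 (about 9 µM by stock and volumes)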. 0.75% of 290,000 active. AID 2221, 2009; in the data active = inhibition above about 30%; inconclusive = no clear call, values can overlap the other calls;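 note: 0% = vehicle wells and 100% = reference inhibitor control wells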
Target sequence (P9WHJ3 whole entry, looked up, canonical isoform): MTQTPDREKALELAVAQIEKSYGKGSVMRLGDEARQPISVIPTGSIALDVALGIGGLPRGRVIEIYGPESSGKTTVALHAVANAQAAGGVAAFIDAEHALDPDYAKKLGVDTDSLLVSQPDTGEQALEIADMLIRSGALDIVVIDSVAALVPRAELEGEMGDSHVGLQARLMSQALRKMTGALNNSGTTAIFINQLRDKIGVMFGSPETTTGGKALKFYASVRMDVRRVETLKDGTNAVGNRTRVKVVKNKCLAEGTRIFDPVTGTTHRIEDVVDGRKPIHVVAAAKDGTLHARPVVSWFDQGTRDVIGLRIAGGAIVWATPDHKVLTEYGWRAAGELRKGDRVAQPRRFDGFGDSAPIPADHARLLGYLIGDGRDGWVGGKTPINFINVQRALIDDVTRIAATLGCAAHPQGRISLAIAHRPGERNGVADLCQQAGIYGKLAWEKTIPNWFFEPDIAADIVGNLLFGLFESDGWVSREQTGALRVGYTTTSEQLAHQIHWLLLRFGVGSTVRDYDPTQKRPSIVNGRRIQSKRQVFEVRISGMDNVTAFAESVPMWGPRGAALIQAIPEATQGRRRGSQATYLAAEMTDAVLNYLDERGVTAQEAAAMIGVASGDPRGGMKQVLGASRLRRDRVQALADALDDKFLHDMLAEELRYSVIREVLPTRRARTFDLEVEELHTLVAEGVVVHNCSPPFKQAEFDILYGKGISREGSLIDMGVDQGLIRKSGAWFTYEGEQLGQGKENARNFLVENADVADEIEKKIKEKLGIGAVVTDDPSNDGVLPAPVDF
YopH inh: YopH tyrosine phosphatase inhibitors, primary screen, biochemical, fluorescence Ex485/Em525; inhibition, %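 (about 10 µM by stock and volumes)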; 0.16% of 140,000 active;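 active = inhibition of 50% or more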;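 note: controls were vehicle for no effect and minimum signal wells for full effect; inactives centre near -20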
Mtb H37Rv: M. tuberculosis H37Rv growth inhibitors, H37Rv strain (AID 1626); M. tuberculosis H37Rv growth inhibition; higher % means a stronger effect; inhibition, % at 10 µM, or IC50 in µM where a hit was titrated; 0.95% of 220,000 active;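 active = confirmed in a dose series; inconclusive = inhibition above 80% but not taken into the dose series; inactive = below 80% or under 30% at every dose of the series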;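 note: bacteria incubated seven days before Alamar blue readout; 0% = bacteria only wells and 100% = bacteria with antibiotic wells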
Arbovirus anti: antivirals against arbovirus infection, primary screen, cell-based, full library, 10K replicate subset | arbovirus infection cell-based antiviral screen | inhibition, % at 10 µM | 0.37% of 200,000 active | AID 1251, 2008;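 active = inhibition from about 30%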;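 note: bluetongue infection of BSR cells; cell survival read as ATP light after 72 h; 0% = infected wells without compound and 100% = uninfected wells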
Arbovirus anti repeat: recorded beside Arbovirus anti, whose call it bears; inhibition, %; measured here: 10K subset replicate screen; many hits read low in the repeat;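 first of two repeat runs on a subset; 0% = infected and 100% = uninfected wells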
* hit, by the source's call; ? = inconclusive; / = no result given. Not all compounds are listed (hit frequency here may not be typical).

SMILES	Mtb bLac sens	RecA splice inh	YopH inh	Mtb H37Rv	Arbovirus anti	others
COC(=O)[C@@H]1CCCN1Cc1c(C(=O)N2CCCCC2)nc2c(C)cccn12	-8	0.2	/	-2%	7
Cc1cc(NS(=O)(=O)c2ccc(NC(=O)c3ccccc3C)cc2)no1	0	1.8	/	/	/
CCCCn1c(N)c(N(CCOC)C(=O)C2CCN(C(=O)c3ccccc3C)CC2)c(=O)[nH]c1=O	-5	1.4	/	/	/
CC(NCC(c1ccco1)N1CCCCC1)C(=O)NC1CCCC1 (stereo not given)	-9	3.2	/	-3%	17
O=C(Cn1nc(C(F)(F)F)c2c1CCC2)N1CCN(c2ccccc2)CC1	?	0.5	-47	-2%	-11
CC1(C)CC(=O)C2=C(C1)c1c(ccc3ccccc13)NC2c1ccc(Br)o1 (stereo not given)	75	-1.2	-51	6%	-23
O=C(COC(=O)c1cccc(O)c1)Nc1ccc(Cl)cc1C(=O)c1ccccc1	56	4.8	-28	75%	6
COCc1c(Br)c(C)nc(OCC(=O)N/N=C/c2ccc(C)o2)c1C#N	-2	5.3	/	0%	1
OCCN(CC(O)Cn1ccc2ccccc21)CC(O)Cn1ccc2ccccc21 (stereo not given)	-16	3.6	-43	/	-17
CC(C)(C)C(=O)O/N=C(\N)Cc1ccc(-c2csnn2)cc1	-1	2.7	/	-5%	/
COc1ccc(CCNC(=O)c2ccc(Cl)cc2Cl)cc1OC	9	-0.3	/	-2%	7
COc1ccccc1-c1nc(-c2cccc(C)c2)no1	52	0.9	-31	10%	2
N#Cc1c(C(F)(F)F)cc(-c2ccco2)nc1SCc1ccncc1	13	0.2	-18	4%	-17
Cc1ccc(/C(O)=C2\C(=O)C(=O)N(CC(C)O)C2c2cccc(F)c2)cc1 (stereo not given)	-8	-1.8	0	-9%	7
Cc1nc(S(=O)(=O)Nc2ccc3c(c2)OCCO3)cn1C	9	-0.4	/	2%	/
O=C(NCc1ccco1)/C(=C\C=C\c1ccccc1)NC(=O)c1ccco1	-5	1.0	/	1%	/
COc1cc(-c2nc3cnccn3c2Nc2ccc3c(c2)OCCO3)ccc1O	-7	-4.2	-22	-1%	1	Arbovirus anti repeat=5
COc1ccccc1N1CCN(C(=O)CCCC2=NS(=O)(=O)c3ccccc3N2)CC1	4	-0.6	-27	/	4	Arbovirus anti repeat=1
CNC(=O)C(=O)NCC1OCCCN1S(=O)(=O)c1cccs1 (stereo not given)	-4	-1.4	-22	-8%	10
O=C(CN1C(=O)c2ccccc2C1=O)Nc1sc2c(c1C(=O)NCC1CCCO1)CCC2 (stereo not given)	-1	-2.7	-31	-8%	12
Cn1cccc1/C=N/NC(=O)CNc1ccc2ccccc2c1	96	0.6	/	/	/
Cc1ccc(-n2c(SCC(=O)N3CC(=O)Nc4ccccc43)nc3ccccc3c2=O)cc1	4	2.5	-4	13%	-10
O=C(N/N=C\c1ccco1)Nc1cccc(Cl)c1	6	/	-2	12%	6
Clc1ccccc1Nc1ncnc(-n2cccc2)n1	12	-5.2	-52	-5%	2
CN1CCN(C(=O)c2ccccc2-c2ccccc2C(=O)O)CC1	5	-1.1	-55	-3%	4
The list goes on.
SMILES	Mtb bLac sens	RecA splice inh	YopH inh	Mtb H37Rv	Arbovirus anti	others
CC(CCc1ccccc1)NC(=O)C(=O)NCCO (stereo not given)	14	1.0	-65	-4%	4
CC(OC(=O)Cn1[nH]c(=O)c2ccccc2c1=O)C(=O)Nc1ccc(F)cc1Cl (stereo not given)	-6	2.0	/	/	/
O=C(c1ccc(Oc2ccc(Cl)cc2)c([N+](=O)[O-])c1)N1CCCC1	-2	-2.2	/	/	/
Nc1nc(CSCCO)nc(Nc2ccc(F)cc2)n1	-3	-7.0	3	-11%	10
O=C1NC(NS(=O)(=O)c2ccccc2)(C(F)(F)F)C(=O)N1CCc1ccccc1 (stereo not given)	-6	8.3	/	/	/
COc1ccc(N2CCN(C(=O)C3CCCN(S(=O)(=O)c4c(C)noc4C)C3)CC2)cc1 (stereo not given)	-3	-3.4	/	7%	/
COc1ccc(S(=O)(=O)NCCNC(=O)N2CCOCC2)cc1	-5	-0.6	/	/	/
COc1ccc(N2CCN(CC(=O)c3c[nH]c4ccccc34)CC2)cc1	4	-2.1	/	-6%	/
CSc1nc(N2CCOCC2)c2c3c(sc2n1)CCC3	8	5.2	34	-1%	1
Cc1ccc(C)c(S(=O)(=O)N2CCN(C(=O)CSc3ccccc3)CC2)c1	3	1.2	/	/	/
C/C(=N\NC(=O)c1ccc(F)cc1)c1ccccn1	99	-1.6	/	/	/
CC(Oc1ccc2c3c(c(=O)oc2c1)CCCC3)C(=O)NCc1ccccn1 (stereo not given)	44	-1.4	/	/	/
COc1ccc(-c2nc3n(c2C)Cc2ccccc2-3)cc1	4	0.2	/	10%	/
CCOc1ccc(NS(=O)(=O)c2ccc(NS(=O)(=O)c3ccccc3)cc2)cc1	-7	5.0	-27	1%	-1
CCn1c(-c2cc(Cl)ccc2OC)n[nH]c1=S	1	-0.8	-21	2%	4
Cc1ccccc1NC(=O)C1(NC(=O)c2cccc(N3C(=O)CSC3c3ccccc3)c2)CCCCC1 (stereo not given)	4	4.8	-19	-2%	-2
CCC(C)NC(=O)CSc1nc2ccccc2c(=O)n1CCCC(=O)NCC1CCCO1 (stereo not given)	0	-1.4	0	-1%	-7
Cc1cc(C)c2nc(SCC(=O)NNC(=O)c3ccco3)c(C)cc2c1	1	4.0	/	-1%	1
CC(C)(C)c1ccc(OCCC(=O)NNC(=O)c2ccncc2)cc1	97	-0.9	/	/	/
COc1cc(CCNC(=O)CCCn2c(=O)c3cccn3c3cccnc32)cc(OC)c1OC	4	1.4	/	/	/
CCCCc1nc2cc(C(=O)N3CCCCC3C(=O)OC)ccc2o1 (stereo not given)	5	1.0	/	/	/
CN(CCCC(=O)Nc1nccs1)S(=O)(=O)c1ccc(Cl)cc1	-2	-1.5	-44	2%	14	Arbovirus anti repeat=4
OCC1(CCCc2ccccc2)CCN(Cc2ccc(F)cc2)CC1	-5	0.6	/	-1%	-31
C=CCNC(=O)c1ccc(Cl)cc1Cl	-5	/	-16	2%	-2
COc1ccc(NS(=O)(=O)c2cc(NC(=O)CNC(=O)c3cccc(OC)c3)ccc2C)cc1	-5	-0.8	-29	-2%	4

6 entries picked at random from those above, as already listed:
SMILES	Mtb bLac sens	RecA splice inh	YopH inh	Mtb H37Rv	Arbovirus anti	others
Cc1ccc(-n2c(SCC(=O)N3CC(=O)Nc4ccccc43)nc3ccccc3c2=O)cc1	4	2.5	-4	13%	-10
O=C(c1ccc(Oc2ccc(Cl)cc2)c([N+](=O)[O-])c1)N1CCCC1	-2	-2.2	/	/	/
Cc1ccc(/C(O)=C2\C(=O)C(=O)N(CC(C)O)C2c2cccc(F)c2)cc1 (stereo not given)	-8	-1.8	0	-9%	7
Cc1cc(C)c2nc(SCC(=O)NNC(=O)c3ccco3)c(C)cc2c1	1	4.0	/	-1%	1
CCC(C)NC(=O)CSc1nc2ccccc2c(=O)n1CCCC(=O)NCC1CCCO1 (stereo not given)	0	-1.4	0	-1%	-7
O=C(CN1C(=O)c2ccccc2C1=O)Nc1sc2c(c1C(=O)NCC1CCCO1)CCC2 (stereo not given)	-1	-2.7	-31	-8%	12

Other structures.
SMILES	Mtb bLac sens	RecA splice inh	YopH inh	Mtb H37Rv	Arbovirus anti	others
COc1ccc(CCN2CC(C(=O)OCC(=O)Nc3c(C)nn(-c4ccccc4)c3C)CC2=O)cc1OC (stereo not given)	-8	0.0	/	/	/
CC(C)CC12CN3CCN(CC(C3)/C1=N/O)C2	-7	/	5	-4%	3
CC1(C)Cc2cccc(OCC(=O)Nc3ccccc3N3CCOCC3)c2O1	0	0.2	-39	1%	26
C/C(Cl)=C\Cn1c(Nc2ccccc2)nc2c1c(=O)n(C)c(=O)n2C	0	-0.9	0	-7%	14
COc1ccc(N2CCN(C(=O)Cn3nnc(-c4ccc(N(C)C)cc4)n3)CC2)cc1	-6	7.8	/	-2%	-8
Cc1ccc(N2C(=O)c3n[nH]c(C)c3C2c2cccnc2)cc1 (stereo not given)	1	0.0	2	-3%	-1
Cc1ccc([N+](=O)[O-])cc1S(=O)(=O)NCCc1c(C)[nH]c2c(C)cccc12	3	-0.5	-25	-4%	10
CC(=O)Nc1ccc(C(=O)N/C(=C/c2ccccc2)C(=O)N2CCCCC2)cc1	0	1.2	/	/	/
Cc1ccc(N2CC(C(=O)Nc3nnc(C)s3)CC2=O)cc1 (stereo not given)	-4	0.4	9	14%	7
O=C(NC1CCCCC1)C(Cc1ccccc1)NS(=O)(=O)c1cccs1 (stereo not given)	-6	-1.8	3	-5%	2
CCCCN(Cc1cc2cccc(C)c2[nH]c1=O)S(C)(=O)=O	-9	1.9	/	-1%	/
CCCc1cc(C(=O)OC)c(NC(=O)CCCC(=O)O)s1	-3	1.4	/	4%	7
O=C(O)c1ccccc1NCN1C(=O)C2CC=C(Cl)CC2C1=O (stereo not given)	4	0.9	-47	2%	8
CCOC(=O)C1CCN(C(=O)NC23CC4CC(CC(C4)C2)C3)CC1	-1	0.5	2	0%	1
CCOC(=O)CSc1nnc(SCCN2C(=O)c3ccccc3C2=O)s1	98	-1.6	-15	/	-2
O=C(Nc1nnc(CC2=CCCCC2)s1)Nc1ccccc1F	-8	-1.6	/	-2%	/
Cc1ccc(Nc2nc(-c3ccc(S(=O)(=O)N4CCCC4)cc3)cs2)cc1C	-1	11	-21	17%	-18
CC(C)CCn1c(CN2CCN(C(=O)c3ccco3)CC2)nc2c1c(=O)n(C)c(=O)n2C	-3	1.3	4	2%	-4
COc1ccc(NC(=O)/C(C#N)=C/c2ccc(Br)o2)cc1	7	-0.3	-29	-1%	-2
COC(=O)c1c(NC(=O)CSc2nc(-c3ccco3)cc(C(F)(F)F)n2)sc2c1CCCC2	4	/	-9	17%	-6
Cc1cc(-c2nnc3sc(-c4ccc(Cl)cc4Cl)nn23)n[nH]1	4	-1.1	-29	-1%	-8
COc1cc(C(=S)N2CCOCC2)ccc1OC(=O)c1cc(OC)c(OC)c(OC)c1	2	-0.1	/	/	/
Cc1cc(NC(=O)c2ccc(F)cc2)n(-c2ccccn2)n1	55	0.3	/	12%	-6
COCc1nnc(SCC(=O)NC(C)c2ccccc2)n1-c1ccccc1 (stereo not given)	-10	/	33	0%	8
CCCCSCc1[nH]c(=O)[nH]c1C(=O)CCCCC(=O)OCC	-5	-0.1	-51	-12%	6	Arbovirus anti repeat=1

The last 2 records of the section before open the next one.
SMILES	Mtb bLac sens	RecA splice inh	YopH inh	Mtb H37Rv	Arbovirus anti	others
COCc1nnc(SCC(=O)NC(C)c2ccccc2)n1-c1ccccc1 (stereo not given)	-10	/	33	0%	8
CCCCSCc1[nH]c(=O)[nH]c1C(=O)CCCCC(=O)OCC	-5	-0.1	-51	-12%	6	Arbovirus anti repeat=1
CCOc1ccc(S(=O)(=O)N(C)CC(=O)N2CCCC2)cc1	-2	0.2	/	/	/
Nc1cc(S(=O)(=O)c2ccc(O)c(N)c2)ccc1O	-2	2.3	/	1%	/
CCC(=O)c1ccc(OCC(=O)Nc2cc(S(=O)(=O)N3CCCCC3)ccc2OC)cc1	-3	0.9	/	/	/
O=C(N/N=C\c1cc2c(cc1[N+](=O)[O-])OCO2)c1cccs1	-1	-2.8	/	/	/
Cc1csc(NC(=O)CSc2nnc(-c3cc(C)on3)o2)n1	2	-0.1	-24	8%	-11
O=C(O)/C=C/C(=O)Nc1ccccc1SC(F)(F)C(F)(F)C(F)(F)F	-4	17	/	-2%	4
COc1ccc(Cn2c(=O)[nH]c3cc(C(=O)NCCCN4CCCCCC4)ccc3c2=O)cc1	-3	1.1	/	-3%	17
COC(=O)c1ccc(NC(=S)NN2CCCCC2c2cccnc2)cc1 (stereo not given)	-2	0.4	/	12%	/
COCCN1CCN(C(=O)C2CCC(=O)N(Cc3ccccc3OC)C2)CC1 (stereo not given)	-11	-2.2	/	/	/
COc1cccc(C2Cc3ccccc3C(=O)O2)c1 (stereo not given)	7	-0.6	-23	5%	-3
CC1CCN(S(=O)(=O)c2ccc3[nH]c(=O)cc(C(=O)O)c3c2)CC1	-3	-0.4	-38	-2%	4
Cc1ccc(C(=O)N[C@H](C(=O)OCC(=O)NC2CCS(=O)(=O)C2)C(C)C)cc1 (stereo not given in full)	1	3.1	-18	-1%	-5
CCOC(=O)C(=CNc1nc(-c2ccccc2)c(C(=O)Nc2ccc(-c3ccccc3)cc2)s1)C(=O)OCC	-3	-3.2	/	/	/
CC1(C)CC(=O)c2cnc(NC(=O)CSC(=S)N3CCCCC3)nc2C1	-3	-3.7	/	-10%	/
COC(=O)c1c(NC(=O)c2cccnc2)sc(C(=O)N(C)C)c1C	3	1.5	-20	-4%	-7
COc1cc(NC(=O)C2=C(C)OCCS2)c(Cl)cc1C(=O)NCCN(C)C	-2	-1.4	/	/	/

Bioassay records (PubChem BioAssay)
